# Menin-MLL FL inh: displaces fluorescein MLL peptide from human menin. Fluorescence polarization, fluorescein-MLL peptide displacement from menin. FP activity change, % at 61.4 µM. 290,000 tested, under 10 active. AID 1766; inconclusive = falling polarisation curve, or a change in total fluorescence; inactive = total fluorescence flat and polarisation flat or rising; no compound was filed as active; the % refers to the polarisation; negative = inhibition;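 note: % of control where 0% means no effect; inhibitors lower the polarisation; unlabelled MLL peptide was the positive control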
# gsp agonist: agonists of gsp mutant (McCune-Albright syndrome); 340,000 compounds, 0.13% hits; Potency, µM (doses to about 76.9 µM), without a hit: at the highest dose activation (cAMP increase), hits mostly activators; gsp mutant cells, cAMP HTRF, 30 min; control for the full effect not named in the record; active = well fitted activation curve with a large enough effect; inconclusive = small, poorly fitted or top-dose-only effect, or another doubt; inactive = no such curve, though single readings can be large or run the other way; cell line not stated here;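 note: phosphodiesterase inhibitor Ro 20-1724 added with compounds to block cAMP breakdown; potency is the fitted concentration of half-maximal effect; nearly all actives have a fitted effect of over 60% in size; about a fifth of the inactives were tested at one dose only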
#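 Cells in DMEM/10% FBS with G418 were pretreated with compounds in DMSO plus […] (300 uM stock) for 30 min at 37C. cAMP was measured by HTRF (cAMP-d2 plus anti-cAMP antibody-K) after 30 min at room temperature.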
# gsp antag: gsp mutant antagonism | gsp-mutant cells, cAMP HTRF, 30 min; control for the full effect not named in the record | Potency, µM (series often up to 76.9 µM), for the others: top-dose activity change, negative = inhibition, most hits filed as inhibitors | 340,000 compounds, 0.4% hits; active = falling curve of any shape with a large fitted effect; inconclusive = falling curve, mostly with a smaller effect; inactive = flat or rising curve; cell line not stated here;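 note: intracellular cAMP measured with PDE inhibitor Ro 20-1724 present during compound exposure; potency is the fitted concentration of half-maximal effect; % is set by controls: 0 for no effect and ±100 for the full control effect; nearly all actives have a fitted effect of over 65% in size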
#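 Measurement of cellular cAMP by homogeneous time-resolved fluorescence following a 30 min compound exposure at 37C. The PDE inhibitor […] was present throughout; the assay buffer was DPBS with 0.05% BSA and 0.005% Tween 20.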
# ClpP mod: qHTS Assay for Activators of ClpP; ATP-dependent Clp protease proteolytic subunit (Bacillus subtilis (strain 168)), P80244; 340,000 compounds, 1.9% hits; Potency, µM (series often up to 57.5 µM), for inactives: at the top dose activity change, negative = active; AID 651965, 2013; purified B. subtilis ClpP, FRET peptide cleavage, 20 min; active = well fitted falling curve with a large enough effect; inconclusive = small, poorly fitted or top-dose-only effect; inactive = no such curve, though single readings can be large or run the other way; note: potency is the fitted concentration of half-maximal effect; the source files actives as falling curves though it sought activators and does not explain the sign; nearly all actives have a fitted effect of over 65% in size; many hits overshoot -100%
# Target sequence (P80244 whole entry, looked up): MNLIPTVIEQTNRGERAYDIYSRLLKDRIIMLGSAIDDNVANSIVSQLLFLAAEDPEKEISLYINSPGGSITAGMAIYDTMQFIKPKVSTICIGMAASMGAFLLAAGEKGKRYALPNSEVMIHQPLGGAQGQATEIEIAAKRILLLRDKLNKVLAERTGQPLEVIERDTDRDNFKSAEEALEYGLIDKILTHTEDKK
#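 FRET quenching reversal measured ClpP activation: 10 microg/mL B. subtilis ClpP at pH 8 with the FRET-FV decapeptide, read at 430 nm after 320 nm excitation. The 20-min minus 0-min signal was scaled between DMSO/no-enzyme wells and ADEP (5.8 microM final).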
# TRPV1 PAM: potentiators of human vanilloid receptor 1 (TRPV1); Q8NER1; TRPV1-expressing cells, Fluo-8 calcium influx, capsaicin EC20 potentiation; host cell line not named in the record; control for the full effect not named in the record; potentiation, % at 8.33 µM; 320,000 compounds, 0.02% hits; AID 540277; active means potentiation above 80%; inconclusive means 30% to 80%; inactive means below 30%; note: 0% is about no effect
# Target sequence (Q8NER1 whole entry, looked up): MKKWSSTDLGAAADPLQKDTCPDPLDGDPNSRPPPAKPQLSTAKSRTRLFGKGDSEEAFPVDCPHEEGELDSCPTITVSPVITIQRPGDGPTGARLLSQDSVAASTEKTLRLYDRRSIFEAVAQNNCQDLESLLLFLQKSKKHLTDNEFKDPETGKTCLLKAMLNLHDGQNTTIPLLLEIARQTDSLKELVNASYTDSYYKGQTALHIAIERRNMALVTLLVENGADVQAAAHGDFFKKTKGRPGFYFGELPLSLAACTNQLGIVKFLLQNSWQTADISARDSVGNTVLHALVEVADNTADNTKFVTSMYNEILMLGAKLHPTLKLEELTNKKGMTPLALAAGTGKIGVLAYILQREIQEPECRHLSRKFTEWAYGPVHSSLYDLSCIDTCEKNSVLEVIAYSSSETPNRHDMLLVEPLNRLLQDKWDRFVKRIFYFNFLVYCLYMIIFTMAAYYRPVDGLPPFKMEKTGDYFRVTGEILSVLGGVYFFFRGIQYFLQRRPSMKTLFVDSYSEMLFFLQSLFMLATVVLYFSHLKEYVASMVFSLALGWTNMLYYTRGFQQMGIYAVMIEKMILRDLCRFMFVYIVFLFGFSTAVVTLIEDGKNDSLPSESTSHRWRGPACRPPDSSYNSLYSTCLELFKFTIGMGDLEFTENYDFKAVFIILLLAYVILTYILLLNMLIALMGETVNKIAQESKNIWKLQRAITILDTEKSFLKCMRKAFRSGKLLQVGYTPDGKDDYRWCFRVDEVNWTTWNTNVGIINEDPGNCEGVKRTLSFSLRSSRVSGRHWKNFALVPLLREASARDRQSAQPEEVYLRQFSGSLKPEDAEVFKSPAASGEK
#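 Fluo-8 calcium influx in TRPV1-expressing cells, kinetic read (ex 480/em 520 nm). Compound added and read 3 min for agonist activity, followed by capsaicin at EC20 final and 2 min further read for enhancement.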
# D2 potentiator: positive allosteric modulators of human D2 dopamine receptor | 360,000 compounds, 0.23% hits | DiscoveRx D2 beta-arrestin cells, luminescence, 90 min; 100% = 57 uM dopamine signal | potentiation, % (concentration not given with the values); active = potentiation of 50% or more; inconclusive = 30% to 50%; inactive = 30% or less;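 note: tested on top of an EC20 dose of dopamine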
#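 D2 cells co-treated with compound plus 50 nM dopamine (EC20) for 90 min at 37 deg C to detect potentiation. Beta-arrestin recruitment was read as enzyme-fragment luminescence after 1 h at ambient temperature. Full response was set by 57 uM dopamine.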
# Sfp PPTase inh: blocks B. subtilis Sfp PPTase activity | Q9F4F7 | Biochemical Sfp PPTase activity, qHTS | Potency, µM, without a hit: max response, negative = inhibition, actives largely listed as inhibitors | 310,000 compounds, 3.5% hits | AID 1490; active = well fitted inhibition curve with a large enough effect; inconclusive = small, poorly fitted or top-dose-only effect, or another doubt; inactive = no such curve, though single readings can be large or run the other way;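 note: the enzyme is Sfp with the accession as filed and its product quenches rhodamine fluorescence; potency is the fitted concentration of half-maximal effect; 0% = enzyme reaction without inhibitor and -100% = no enzyme wells; top concentration of the series not given in the record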
#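 After 15 min at room temperature with compound, 15 nM Sfp received 5 uM rhodamine-CoA plus 12.5 uM BHQ-2-ybbR (50 mM Hepes pH 7.6, 10 mM MgCl2). Rate came from the fluorescence difference over 30 min, ex 525/em 598 nm.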
# Active calls of the source: *; ? = inconclusive; · = not tested or not shown; & = joins results of further samples; [ ] = another dose, or the depositor's remark. Not a hit list, and some 5.1% of all compounds hit somewhere here.
SMILES,Menin-MLL FL inh,gsp agonist,gsp antag,ClpP mod,TRPV1 PAM,D2 potentiator,Sfp PPTase inh
COc1ccc(Nc2nc(NC(C)(C)C)nc(N3CCOCC3)n2)c(OC)c1,-0.6,13%,0%,-1.4%,0,1,-1%
COc1nn(CC(=O)N2N=C(C)CC2(O)C(F)F)cc1[N+](=O)[O-] (stereo not given),2.7,4%,12%,1.4%,-20,-6,1%
COc1ccc(NC(=O)CN(C)S(=O)(=O)c2ccccc2)c([N+](=O)[O-])c1,?,?,7%,-0.2%,-8,7,10%
CCOc1ncccc1C(=O)N1CCN(S(=O)(=O)c2ccc(Br)cc2Cl)CC1,-3.0,5%[15.4 µM],3%,0.7%,-4,-3,1%
CCSc1oc(-c2ccco2)nc1S(=O)(=O)c1ccc(F)cc1,9.0,-32%[inhibitor],0%,-4.4%,-14,-7,-26%
OCCN1CCN(c2nc(-c3ccccc3)c3cc(Cl)ccc3n2)CC1,3.1,13%,-2%,-5.7%,-6,-19,-29%
CN(CCC#N)C(=O)COC(=O)c1ccc2c(=O)n3c(nc2c1)CCC3,-3.9,-4%,1%,-15%,6,0,20%
CCN(CC(=O)Nc1cccc(OC)c1)c1ncnc2sc(C)c(C)c12,8.1,11%,1%,-1.7%,-10,-4,8%
COc1cc(/C=C2\C(=N)N3N=C(S(C)(=O)=O)SC3=NC2=O)cc(OC)c1OCCOc1ccccc1C,1.2,-5%[15.4 µM],-1%,-2.8%,13,-7,-25%
CNC(=O)CN(c1ccc(F)cc1)S(=O)(=O)c1cc(C)ccc1OC,1.1,18%,6%,-2.2%,4,-6,-8%
CCN(c1ccccc1)S(=O)(=O)c1cnc[nH]1,2.0,-12%,5%,-2.6%,8,4,3%
Cn1c(N)c(C(=O)COC(=O)/C=C/c2ccc(Cl)c(Cl)c2)c(=O)n(C)c1=O,·,-3%,-6%,·,·,-4,·
Cc1cc(NC(=O)c2cccc(S(=O)(=O)N3CCOCC3)c2)no1,5.6,15%,10%,0.9%,7,-9,15%
CC(C)C[C@@H](CNCC(=O)[C@H](C)NC(=O)c1[nH]cnc1C(=O)N[C@@H](C)CN)NC(=O)c1nc[nH]c1C(=O)N[C@@H](C)C(=O)O,·,·,4%,0.6%,·,-7,·
COc1cccc(N2CC(C(=O)N3CCC4(CC3)CC(=O)c3ccccc3O4)CC2=O)c1 (stereo not given),·,-23%,-6%,28µM*,?,15,·
NS(=O)(=O)c1ccc(NC(=O)COC(=O)c2cc([N+](=O)[O-])ccc2Cl)cc1,5.5,-8%[15.4 µM],-4%,·,27,17,11%
Cn1c2ccccc2c(=O)c2c(=O)n(-c3ccc(F)cc3)c(C3CCCCC3)nc21,·,?,6%,0.6%,·,1,·
CC(C)N1C(=O)N(c2ccccc2)C(C)(O)CC1(C)C (stereo not given),-8.2,-5%,3%,-1.8%,4,-19,18%
CC1(C(=O)O)CCC(C(=O)N2CCOCC2)C1(C)C (stereo not given),1.2,14%,8%,-0.5%,22,-2,10%
O=C(Nc1ccc(OC(F)(F)F)cc1)C1CCCCN1S(=O)(=O)c1ccccc1 (stereo not given),·,4%,-17%,0.7%,-2,-18,·
O=C(c1coc(=O)c(Br)c1)N1CCCc2ccccc21,?,-33%[inhibitor],4%,13µM*,1,-22,79µM*
O=C1Cc2cc(S(=O)(=O)NCc3ccccc3Cl)cc3c2N1CCC3,·,6%,-11%,0.4%,-4,-3,8%
Cc1cc(C)n2nc(C(=O)OCC(=O)N(C)C3CCCCC3)nc2n1,·,-2%[15.4 µM],-3%,-0.6%,9,-5,·
COC(=O)c1ccc(OCC(=O)N2CCCc3ccccc32)cc1,0.1,10%[15.4 µM],-5%,·,7,-9,11%
Cc1nc(NC(=O)CSc2nnc(N)s2)c(Cl)cc1Cl,1.4,-9%[15.4 µM],6%,·,-5,4,-17%
Cc1ccc(C)c2c1cc(C)c1nnc(SCC(=O)Nc3nc4c(s3)CCCC4)n12,0.8,-2%,9%,-2.6%,-1,-2,12%
Cc1ccc(S(=O)(=O)NCC2CCC(C(=O)N3CCN(C)CC3)CC2)cc1 (stereo not given),·,14%,15%,0.6%,2,-9,-1%
O=C1C=C(N2CCCCCC2)C2(CCCCC2)O1,2.2,8%,-4%,·,-2,1,23%
CS(=O)(=O)N(CC(=O)Nc1ccc(F)cc1F)c1cccc([N+](=O)[O-])c1,1.2,1%,0%,0.5%,-2,-6,25%
CC(C)N(Cc1nc(-c2ccccc2)no1)C(=O)c1ccc2c(c1)OCO2,-1.2,-36%[inhibitor],3%,-0.9%,2,-8,4%
O=c1[nH]cnc2c1ncn2-c1ccc(Cl)cc1,·,-45%[inhibitor],-1%,-1.4%,·,-13,·
Cc1cccc(NC(=O)c2onc3c2CCCC3)c1C,-0.4,-30%,-4%,1.4%,-3,-1,-10%
Cc1n[nH]c(=S)n1/N=C/c1ccccc1OCc1ccc(Cl)cc1,-0.6,-1%,-14%,1.3%,0,14,50µM*
CCOCCCn1c(SCC(=O)Nc2oc(C)c3c(C)n[nH]c(=O)c23)nc2ccccc2c1=O,·,2%[15.4 µM],29%,·,·,3,·
CCCCc1cc(=O)oc2c(C)c(OCC(=O)N3CCC(C(N)=O)CC3)ccc12,-0.8,-70%[inhibitor],-4%,4.5%,-9,-1,8%
Cc1nc(SCC(=O)Nc2nc3ccccc3s2)c(C#N)c(C)c1C,4.2,?,?,1.4%,?,0,50µM*
CC(=O)Nc1cccc2cc(O)ccc12,·,-16%,-5%,·,·,-3,·
Cc1ccc(S(=O)(=O)N2CCN(CC(=O)N3CCCC3)CC2)c(C)c1,·,6%,-14%,-1.1%,·,-14,·
Cc1ccc2cc(COC(=O)c3ccncc3)c(=O)[nH]c2c1,1.3,8%,-1%,-7.1%,-5,-14,-9%
CC(=O)N1CCc2cc(S(=O)(=O)C(C)CC(=O)NCc3ccco3)ccc21 (stereo not given),·,-15%,·,-0.5%,·,-8,·
C=CC[C@@H](CC(=O)NCCO)C(=O)N[C@H](C)COC(=O)[C@@H](CC=C)Cc1ccc(F)cc1,·,·,11%,2.7%,·,-17,·
COC(=O)CCC(=O)Nc1nnc(C(F)(F)F)s1,0.2,5%,3%,-1.1%,30,-17,-9%
O=C(Nc1ccc(-c2ccccc2)cc1)c1ccco1,-0.7,20%,-4%,·,8,-4,7%
O=C(CSc1nnc(-c2ccco2)o1)c1ccccc1,9.3,7%,-11%,0.5%,-28,-1,56µM*
CC1(C)Cc2ccccc2C(=NCCCCCC(=O)O)N1,5.2,·,·,·,11,·,12%
COc1ccc(C(=O)/C=C\N2CCOCC2)cc1,6.5,-41%[inhibitor],-13%,0.2%,-8,7,1%
Cc1ccc(NC(=O)CCc2c(C)nn(-c3ccc(N4CCCCC4)nn3)c2C)cc1F,·,?,-14%,-5.4%&-8.8%,-27,-12,10%
COC(=O)C1=C(C)N(Cc2cccnc2)C(=O)/C1=C\c1sccc1C,-2.1,-30%,0%,·,-25,-12,-22%
Cc1cc(C)nc(NS(=O)(=O)c2ccc(NC(=O)c3ccc(S(=O)(=O)N4CCOCC4)cc3)cc2)n1,4.5,-23%,-5%,0.3%,1,-15,16%
CSc1nnc(C)c(=O)n1COC(=O)c1ccc(S(=O)(=O)N(C)C)cc1,-1.1,-13%,-13%,-0.9%,-2,5,-3%

# Later entries.
SMILES,Menin-MLL FL inh,gsp agonist,gsp antag,ClpP mod,TRPV1 PAM,D2 potentiator,Sfp PPTase inh
C=CCn1c(C)cc(C(=O)COC(=O)c2ccc3c(c2)NC(=O)CS3)c1C,0.8,-44%[inhibitor],-16%,0.6%,19,-17,56µM*
O=[N+]([O-])c1cc(Cl)c(O)c2ncccc12,6.1,0%,-25%,·,6,-16,-40%
COc1ccc(C2NC3=C(CCC3)C3(C#N)C(OC)(OC)N=C(N)C23C#N)cc1 (stereo not given),3.2,19%,6%,-20%,7,23,22%
COC(=O)c1cnc2c(c(C)nn2C)c1OC,-2.0,5%[15.4 µM],5%,·,26,-3,9%
O=C(CCCN1C(=O)c2cccc3cccc(c23)C1=O)NCc1ccco1,-0.6,-62%[inhibitor],-2%,-29%,2,-1,-1%
COc1ccccc1CNC(=O)COC(=O)c1ccc(C)c(S(=O)(=O)N2CCCCC2)c1,·,?,-25%,1.6%,-2,10,15%
COc1cccc(/C=N/c2sc(Cc3ccccc3)c(C)c2C(N)=O)c1O,10.0,11%,0%,-0.8%,15,-4,?
O=C(NCc1ccccc1Cl)[C@@H]1CCCN1S(=O)(=O)c1ccc(Cl)cc1,·,7%[15.4 µM],-9%,-3.5%,·,-28,·
CC(=O)Nc1cc2c(cc1NC(=O)c1cnccn1)OCCO2,-0.3,1%,-3%,0.3%,2,-11,6%
COc1ccc(C(=O)NCC(C)(C)N2CCOCC2)cc1S(=O)(=O)NCc1ccc(Cl)cc1,·,-6%,2%,-1.8%,·,-3,·
COc1ccc(NS(=O)(=O)c2ccc(S(=O)(=O)N3CCCC3)cc2)cc1,0.5,-39%[inhibitor],-9%,-5.4%,-4,-5,20%
CCc1ccccc1S(=O)(=O)Cc1ccc(C(=O)NCC2CCCO2)o1 (stereo not given),2.3,-36%[inhibitor],5%,0.3%,-10,4,-15%
CCNC(=O)CSC1=N/C(=C\c2ccc(O)c(OCC)c2)C(=O)N1c1ccc(OC(F)F)cc1,·,-56%[inhibitor],-3%,-1.3%,-13,-13,-9%
Cc1ccc(C(O)CN2C3=NCCCN3c3ccccc32)cc1 (stereo not given),0.0,-8%,-1%,0.2%,4,7,11%
COCCOC(=O)c1c(C)n(C)c2ccc(OC(=O)N3CCOCC3)cc12,9.1,29%,3%,1.6%,-10,-9,17%
Cn1cccc1/C=N/NC(=O)c1sc2ccccc2c1Cl,8.4,6%,-12%,2.4%,-13,-30,17%
Cc1ccc(-n2ncc3c2ncn2c(-c4ccncc4)nnc32)cc1,3.0,·,·,·,4,·,13%
Cc1cccc(NC(=O)CCn2c(=O)oc3ccccc32)c1,-1.8,-13%[15.4 µM],6%,·,-3,-1,0%
CN1CCN(c2ccccc2NC(=O)c2ccc(-c3cccc([N+](=O)[O-])c3)o2)CC1,1.0,7%,11%,-4.2%,-8,-15,-9%
